H5N1 antiviral – antiviral screen in MDCK cells, H5N1 avian flu; 0.07% of 96,000 active; inhibition, % at 50 µM; cytopathic effect, luminescence, 72 h; stronger effect = higher value; no value below 0 was filed and about half of the inactive calls have no number; reference of the scale not given here; in the data active = inhibition above about 25%
Numbers without * were called inactive; i = inactive. Not all compounds are listed; rates above refer to the full screens.

SMILES	H5N1 antiviral
Cc1c(NC(=O)c2ccc(F)cc2)c(=O)n(-c2ccccc2)n1C	i
CCOc1ccc(CN2CCN(S(=O)(=O)c3ccc(NC(C)=O)cc3)CC2)cc1OC	5.4
CCOc1cc(NC(=S)Nc2cccc(OC)c2)c(OCC)cc1NC(=O)c1ccc(C)cc1	i
CC(=O)Nc1ccc(S(=O)(=O)NC2(C(F)(F)F)NC(=O)N(c3ccc(Cl)cc3)C2=O)cc1 (configuration not stated)	1.1
COc1ccc(Br)cc1S(=O)(=O)N1CCOCC1	1.7
c1cn2c(NC3CCCC3)c(-c3ccc(N4CCOCC4)cc3)nc2cn1	1.0
O=C(c1ccco1)N1CCN(C(=O)c2cnn3cccnc23)CC1	0.9
Cc1ccc(NC(=O)CCn2c(=O)oc3ccccc32)cc1	i
CC1CCc2nn(CC(=O)NCCC3=CCCCC3)cc2C1 (configuration not stated)	i
O=S(=O)(NCc1ccc2c(c1)OCO2)c1cccc2cccnc12	1.6
CCSc1nnc(NC(=O)COc2cccc3ccccc23)s1	i
COc1ccc(OCC(=O)Nc2ncc3c(n2)CC(C)(C)CC3=O)cc1	i
FC(F)(F)c1cccc(N2CCN(CC3CC=CCC3)CC2)c1 (configuration not stated)	0.6
COc1ccccc1CNC(=O)C1CC(c2ccccc2[N+](=O)[O-])=NO1 (configuration not stated)	1.3
COc1ccc(C2CC(=O)c3c(C)nc(N4CCN(c5ccccc5)CC4)nc3C2)cc1 (configuration not stated)	1.0
COc1ccc(NCc2nnc(SCC(=O)c3ccc(C)cc3)o2)cc1	i
Cn1nccc1C(=O)NCCN1C(=O)OC(C)(C)C1(C)O (configuration not stated)	1.6
N#C/C(=C(/O)CSc1nnc(Cc2cccs2)n1C1CCCCC1)c1nc2ccccc2[nH]1	i
C=CCNc1oc(-c2ccc(OCC)cc2)nc1C#N	1.8
CCc1ccc(NC(=O)Nc2ccc3c(c2)N(C)C(=O)CS3)cc1	i
Cc1nn(-c2ccccc2)c2c1C(c1ccccc1)C(C#N)=C(N)O2 (configuration not stated)	i
C=CCNC(=O)CCCOc1cc(C)ccc1C	0.6
COCCN(C(=O)c1csnn1)C(C(=O)NC1CCCCC1)c1cccs1 (configuration not stated)	0.4
Cc1ccc2nc(SCc3nnc(-c4ccccc4Br)o3)[nH]c2c1	1.4
Cc1ccc(C)c(Cn2c(=O)n(-c3ccc(CC(=O)NCc4ccco4)cc3)c(=O)c3sccc32)c1	0.6
Cc1ccc(C(=O)Nc2nc3ccccc3s2)s1	i
COc1ccc(OC)c(NC(=O)c2c(NC(=O)c3ccco3)sc3c2CCC3)c1	0.1
CC(C)NC(=O)c1cccc(Br)c1	2.0
COc1ccc(-n2c(Cc3cccn3C)nnc2SCC(=O)Nc2cccc(OC)c2)cc1	i
COc1ccc(/C=N/NC(=O)c2sccc2OCc2ccc(F)cc2)cc1OC	0.4
Cc1ccc(N2C(=O)c3ccc(C(=O)NCCN4CCOCC4)cc3C2=O)cc1	0.1
CC(=O)N1CCN(c2nc(C)nc3sc4c(c23)CCC(C)C4)CC1 (configuration not stated)	0.5
O=C(NCC1CCCO1)c1c(O)c2ccccc2[nH]c1=O (configuration not stated)	i
CN(C)c1ccc(C(c2nnnn2CCOC(=O)Nc2ccc(Cl)cc2)N2CCOCC2)cc1 (configuration not stated)	i
Cc1ccc(Sc2ncccc2COC(=O)Nc2c(C)cccc2C)cc1	i
O=C(O)CCC(=O)NCc1ccc(C(=O)O)cc1	i
COc1ccc(CCNc2nc(-c3ccco3)cc(C(F)(F)F)n2)cc1OC	i
OCC(CO)(CO)N=Cc1c(O)ccc2ccccc12	0.6
Cc1nnc(-c2cccc(Br)c2)c2cn(-c3cccc(Br)c3)nc12	0.5
COC(=O)c1cc(Br)c(=O)n(CCc2ccc(F)cc2)c1	4.3
COc1ccc(NC(=O)C2Cc3ccccc3CN2C(=O)c2ccccc2)cn1 (configuration not stated)	i
O=C(c1ccc(N2CCCC2=O)cc1)N1CCCCCC1	1.2
CCCCN(C(=O)CN1C(=O)C2CC=CCC2C1=O)c1c(N)n(CCC)c(=O)[nH]c1=O (configuration not stated)	0.3
Cc1cc(C)n2nc(SCC(=O)c3ccc[nH]3)nc2n1	3.9
CCOc1cccc2c1OC1(C)CC2NC(=O)N1c1cccc(F)c1 (configuration not stated)	0.1
Cn1nnnc1SCc1ccc(C(=O)Nc2nccs2)cc1	1.4
Cc1ccc(S(=O)(=O)NC(C(=O)OCC(=O)NC(=O)c2cccn2C)C(C)C)cc1 (configuration not stated)	0.1
Cc1cccc(Cn2cc(/C=C/[N+](=O)[O-])c3ccccc32)c1	i
COc1ccc(CCNC(=O)COc2ccc(S(=O)(=O)N3CCOCC3)cc2)cc1OC	0.2
CCCCc1nc2ccccc2n1Cc1nnc2n1-c1ccccc1SC2	0.2
Nc1nnc(Cc2ccc(Cl)c(Cl)c2)s1	2.8
O=C(Oc1c(Cl)cc(Cl)c2cccnc12)c1ccco1	i
CCCNS(=O)(=O)c1ccc(NC(=O)c2cccnc2)cc1	0.6
CCc1c(C)sc(NC(=O)c2ccc(Br)o2)c1C(=O)OC	0.2
COCCCn1c(-c2ccc(S(=O)(=O)N3CCOCC3)cc2)csc1=Nc1ccccc1	0.4
N#CCCN/N=C(/Cc1nc2ccccc2[nH]1)c1cccc(Cl)c1	i
COc1cccc(-c2nnc(SCC(=O)Nc3cc(C)on3)o2)c1	0.3
CC(C)OC(=O)c1c(NC(=O)c2cccs2)sc2c1CCCC2	i
CCSc1nc2ccccc2n1Cc1cccc([N+](=O)[O-])c1	i
CCOC(=O)/C(C#N)=C\c1ccco1	0.4

Ordered by length of the SMILES (smallest number first): some entries from above
SMILES	H5N1 antiviral
CCCNS(=O)(=O)c1ccc(NC(=O)c2cccnc2)cc1	0.6
CCc1c(C)sc(NC(=O)c2ccc(Br)o2)c1C(=O)OC	0.2
CCSc1nc2ccccc2n1Cc1cccc([N+](=O)[O-])c1	i
Cc1cccc(Cn2cc(/C=C/[N+](=O)[O-])c3ccccc32)c1	i
Cc1ccc(S(=O)(=O)NC(C(=O)OCC(=O)NC(=O)c2cccn2C)C(C)C)cc1 (configuration not stated)	0.1

(further entries)
SMILES	H5N1 antiviral
CCN(CC)c1ccc(NC(=O)CN2C(=O)CC(C)(C)S(=O)(=O)c3ccccc32)c(C)c1	1.4
CCCCOC(=O)c1ccc(NC(=O)c2cnc3n(c2=O)CCS3)cc1	0.5
CCOC(=O)c1sc(C)c2c(=O)n(CC(=O)c3ccc(Br)cc3)nnc12	1.3
CCCCn1c(O)c(C(C)=NCCN2CCOCC2)c(=O)[nH]c1=O	2.8
O=C1C2C3C=CC(C3)C2C(=O)N1c1nccs1 (configuration not stated)	1.1
Cc1ccc(NC(=O)CSc2nnc(Cc3cccn3C)n2-c2ccc(F)cc2)cc1	i
O=C(CN1CCN(c2ccc(F)cc2)CC1)N1N=CCC1c1ccccc1 (configuration not stated)	i
CN(C)C(=O)c1ccccc1Sc1cc(Cl)ccc1Cl	i
O=S(=O)(N/N=C/c1ccc2c(c1)OCCO2)c1ccccc1	0.2
CCOC(Cn1c(CCCO)nc2ccccc21)OCC	0.9
CC1CCc2nc(NC(=O)c3ccc(S(=O)(=O)N4CCCc5ccccc54)cc3)sc2C1 (configuration not stated)	0.2
CC(C)CC1NC(=O)N(CC(=O)c2ccc3c(c2)OCCO3)C1=O (configuration not stated)	0.0
Cc1cccc(NC(=O)CCc2c(C)nc3ncnn3c2C)n1	i
CC(C)Cn1c(-c2ccccc2F)n[nH]c1=S	0.6
O=c1c([N+](=O)[O-])c(N2CCCCCC2)c2ccccc2n1-c1ccccc1	i
C=CCOc1ccc(CNn2cn[nH]c2=S)cc1	0.1
CC1=C(C(N)=O)C(c2cccnc2)n2nc(-c3cccc(C)c3)nc2N1 (configuration not stated)	i
COc1cccc(C(=O)Nc2ccc(Cl)c(C(F)(F)F)c2)c1	9.9
CSc1nc(SCCO)c2sc3nc(-c4ccco4)c4c(c3c2n1)CC(C)(C)OC4	i
CC(=O)Nc1ccc(C2NC(=O)c3ccccc3O2)cc1 (configuration not stated)	0.9
Cc1ccc(C(=O)C2CCNCC2)cc1	0.4
COc1ccc(OCC(=O)NC(=S)Nc2ccc(N3CCOCC3)c(Cl)c2)cc1	i
CC(C)Sc1nc(N)c2c3c(sc2n1)CN(C)CC3	1.3
CCCOc1ccc(N2C(=O)CC(N3CCC(c4nncn4CC)CC3)C2=O)cc1 (configuration not stated)	i
O=C1c2oc3ccccc3c(=O)c2C(c2cccs2)N1CCCN1CCOCC1 (configuration not stated)	3.0
COc1ccc(C)cc1-n1nnnc1SCc1nc2ccccc2s1	0.7
O=C(CCCN1C(=O)c2ccccc2C1=O)Nc1nncs1	i
Cc1ccnc2nc(C(=O)NC3=NCCS3)nn12	0.8
C=CCN1C(=NC(=O)CCCC(=O)O)SC2CS(=O)(=O)CC21 (configuration not stated)	i
CCCn1cc(C(CC(=O)O)C(=O)O)c2ccccc21 (configuration not stated)	0.8

5 entries drawn at random from those above, as already listed:
SMILES	H5N1 antiviral
COc1cccc(C(=O)Nc2ccc(Cl)c(C(F)(F)F)c2)c1	9.9
CC(=O)Nc1ccc(C2NC(=O)c3ccccc3O2)cc1 (configuration not stated)	0.9
O=C1c2oc3ccccc3c(=O)c2C(c2cccs2)N1CCCN1CCOCC1 (configuration not stated)	3.0
O=C(CCCN1C(=O)c2ccccc2C1=O)Nc1nncs1	i
CC1=C(C(N)=O)C(c2cccnc2)n2nc(-c3cccc(C)c3)nc2N1 (configuration not stated)	i

An excerpt of these results, with each value named:
Cc1ccc2nc(SCc3nnc(-c4ccccc4Br)o3)[nH]c2c1
  H5N1 antiviral: 1.4
Cc1ccc(C)c(Cn2c(=O)n(-c3ccc(CC(=O)NCc4ccco4)cc3)c(=O)c3sccc32)c1
  H5N1 antiviral: 0.6
Cc1ccc(C(=O)Nc2nc3ccccc3s2)s1
  H5N1 antiviral: i
COc1ccc(OC)c(NC(=O)c2c(NC(=O)c3ccco3)sc3c2CCC3)c1
  H5N1 antiviral: 0.1

(next part)
SMILES	H5N1 antiviral
CC1=NN(Cc2ccccc2)C(=O)/C1=C/c1ccc(N(C)C)cc1	i
COc1ccc(S(=O)(=O)N2CCN(c3cccc(C)c3C)CC2)cc1	0.4
O=C(Nc1ccc2c(c1)ncn2-c1ccccc1)c1ccco1	2.2
CCOc1ccc(C(=O)OCC(=O)NCc2ccco2)cc1OCC	0.1
COc1cccc(C(=O)Nc2nc(C)cs2)c1	1.5
CCOC(=O)c1c(-c2cccc(C)c2)csc1NC(=O)c1c(-c2ccccc2)noc1C	i
O=C(Cc1ccccc1)NC1CCN(C(=O)NCc2ccccc2)CC1	0.5
O=c1[nH]c2ccc(S(=O)(=O)Nc3ccc(-c4nnc5n4CCCCC5)cc3)cc2o1	0.3
CC1(C)C2([N+](=O)[O-])CN3CC1([N+](=O)[O-])CN(C2)C31CCCC1	0.5
Cc1nn(C)cc1/C=N/n1nnnc1N	i
O=C(c1ccco1)N1CCN(Cc2nc3ccccc3c(=O)n2-c2ccc(F)cc2)CC1	i
O=C(Cn1cnc2ccc(Cl)cc2c1=O)c1cccs1	i
Cc1ccc(N2C(=O)c3ccc(C(=O)O)cc3C2=O)cc1C	0.3
O=C(NNc1cccc(Cl)n1)Nc1ccccc1	0.5
COc1ccccc1C1/C(=C(/O)c2ccc(C)cc2)C(=O)C(=O)N1CC(C)O (configuration not stated)	0.5
O=C(NC1CCS(=O)(=O)C1)OC1CCCCC1 (configuration not stated)	i
CC1CCCC(C(=O)O)N1C(=O)CCSC(=O)c1ccccc1 (configuration not stated)	0.7
CCCC(=O)NC1=C(C#N)C2(CCCCC2)Cc2ccccc21	1.0
O=c1oc(-c2ccco2)nc2c1cnn2-c1ccccc1	i
CC(=O)NC1CCC(C(=O)O)(c2ccccc2)C1 (configuration not stated)	0.1
COC(=O)C(CCSC)NC(=O)C(NC(=O)C1CCC(C)CC1)C(C)C (configuration not stated)	0.1
CCOC(=O)C1CCCN(S(=O)(=O)c2ccc(F)c(C(=O)Nc3ccc(F)c(F)c3)c2)C1 (configuration not stated)	0.6
Cc1cc(NC(=O)COC(=O)COc2ccc3c(c2)CCC3)no1	0.1
COCCOC(=O)c1[nH]c2c(c1C)C(=O)CC(c1ccc(N(C)C)cc1)C2 (configuration not stated)	0.4
CC(C)(C)c1ccc(CN2N=Nc3ccccc3S2(=O)=O)cc1	i
CC(O)c1nc2ccc(Cc3ccc4nc(C(C)O)[nH]c4c3)cc2[nH]1 (configuration not stated)	i
CC1(C)CC(=O)C2=C(C1)Nc1cc3c(cc1C2c1ccc2c(c1)OCO2)OCO3 (configuration not stated)	i
O=C(COC(=O)C1CCC1)Nc1ccc(Oc2ccccc2)cc1	i
Cc1nnc(SCC(=O)NC2CC2)n1CCc1ccccc1	i
CCCNC(=O)c1ccc2c(c1)ncn2-c1ccccc1OC	i
Cc1ccc(NC(=O)c2ccc(-c3nn(C)c(=O)c4ccccc34)cc2)cc1	i
COc1cc(OC)cc(-n2nnnc2SCC(=O)Nc2nc3c(s2)CCCC3)c1	i
C=CCn1c(C)cc(C(=O)CSc2n[nH]c(N)n2)c1C	1.9
CSc1nncc(/C(C)=N\Nc2ccccc2)n1	4.9
CC(C)OCC(O)CN1CCN(CC(O)COc2ccc3c(c2)OCO3)CC1 (configuration not stated)	i
O=C(CSc1nc(N2CCCCC2)nc(N2CCCCC2)n1)N1CCc2ccccc21	0.5
CCOC(=O)c1cc2sccc2n1CC(=O)N1CCc2ccccc21	i
CCOC(=O)c1cnc(SCc2nc(N)nc(Nc3ccc(C)cc3)n2)nc1N	i
Cc1cc(Nc2ccc(F)cc2Cl)n2ncnc2n1	0.1
CCn1cc(C(=O)NC2CCc3ccccc32)c(=O)c2ccc(C)nc21 (configuration not stated)	i
COc1ccc2nc(NC(=O)CSc3nccc(C)n3)sc2c1	i
O=C(Cn1nc(-c2ccccc2)c2ccccc2c1=O)NCC1CCCO1 (configuration not stated)	0.2
CCOC(=O)N1CCN(C(=O)c2ccc3nc(SCc4ccc(F)cc4)n(C)c3c2)CC1	i
CC(=O)N1CCN(c2ccc(NCc3ccc(C)cc3)cc2)CC1	i
